Screens from PubChem.
NPYLR7 ag – agonists of mosquito NPYLR7 receptor, primary screen, cell-based, Aedes aegypti, calcium fluorescence, mosquito biting behavior. 270,000 tested, 0.15% active. activation, % at 10 µM. HEK293T NPYLR7/Galpha15, GCaMP6s calcium fluorescence. AID 1259423, 2018; in the data active means activation above about 40%;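 further: 0% = vehicle and 100% = reference agonist at the receptor; some compounds past the cut are filed as inactive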
NPYLR7 ag max-min – second read-out of NPYLR7 ag, no call of its own (marks repeat the call); activation, %; measured here: Max-Min RFU normalised activation; some inactives read as strong as hits;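 span of the calcium signal over five minutes; 0% = vehicle and 100% = native peptide agonist; compound fluorescence can raise it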
* marks the source's active call; other numbers are inactive results.

Structure | NPYLR7 ag | NPYLR7 ag max-min
CCn1cc(NS(=O)(=O)c2cc(C(=O)O)cc3c2CCCC3)cn1 | 5 | 3
O=C(NCc1ccco1)C(=O)NC1CC1 | 0 | 7
CCOc1ccccc1N(CC(=O)Nc1ccccc1-c1ccccc1)S(C)(=O)=O | -1 | 0
CC1CCC(N(C)c2cncc(Cl)n2)CC1 (stereo unspecified) | 18 | 11
CCn1nc(C(=O)NCc2ccc(OC)cc2)c2c1CCN(C(=O)CCCc1cccs1)C2 | 0 | -5
COc1ccc2c(c1)OCC(Cc1ccc(O)c(OC)c1)C2=O (stereo unspecified) | -8 | -19
CCN(Cc1c(C)nn(CC)c1C)Cc1c(C)n(C)n(-c2ccccc2)c1=O | 9 | 5
CC1=CC(C)C2(CO)COC(c3ccc(O)cc3)C1C2C (stereo unspecified) | 2 | -2
Cn1cc(-c2ccc(C(=O)N3CCCCC3CCn3cccn3)cn2)cn1 (stereo unspecified) | 22 | 9
O=C1C(=Cc2ccc(-c3ccc(Cl)cc3[N+](=O)[O-])o2)SC(=S)N1CCN1CCOCC1 | 4 | 2
Cc1cccc(-c2[nH]ncc2C(=O)NC2CCCc3c2cnn3-c2ccccn2)c1 (stereo unspecified) | 11 | 3
COCCN(C(=O)/C=C/c1cccnc1)c1ccc(C#N)cc1 | 0 | -1
C#CCn1c(O)c(N=NC(=O)CNC(=O)c2cccc(OC)c2)c2ccccc21 | -5 | -10
COCC(C)OC(=O)C(C)(C)c1ccccc1 (stereo unspecified) | -1 | -5
CC(Cn1cccn1)C(=O)NCc1cccnc1N1CCN(C)CC1 (stereo unspecified) | 11 | 7
CCOC(=O)C(=O)N(C)c1c(CC)nc2c(OCC3COc4ccccc4O3)cccn12 (stereo unspecified) | -18 | -13
Cc1ccc(C(=O)N2CCC2(C)C(=O)O)cc1 (stereo unspecified) | -2 | -5
COc1ccc(NC(=O)N(Cc2cccn2Cc2cccc(F)c2)CC(C)C)c(OC)c1 | -2 | 5
CNC(=O)c1c(I)c(C(=O)NCC(=O)Nc2c(I)c(C(=O)O)c(I)c(C(=O)NCCO)c2I)c(I)c(N(C)C(C)=O)c1I | 9 | -7
CCN(CC)c1onc(-c2ccccc2)c1CN(CCN1CCOCC1)CC(O)c1ccccc1 (stereo unspecified) | 12 | 13
O=C(Nc1ccc(SCCCC(=O)N2CCOCC2)nn1)C1CC1 | -1 | -4
O=C(NCc1sccc1Br)c1cccn1Cc1ccccc1 | 12 | 8
O=C(Nc1ccc2c(c1)nc1n2CCCCC1)C1CCCN1C(=O)c1ccccc1 (stereo unspecified) | 4 | 2
Cn1c(=O)[nH]c(=O)c2c1nc(NC1CCCCC1)n2Cc1ccccc1Cl | 9 | 9
O=C(CCN1C(=O)c2ccccc2C1=O)N1CCOCCOCCOCCOCC1 | -7 | -9
O=C(Cc1cc(F)cc(F)c1)N1CCc2c(sc3[nH]c(=O)n(-c4ccccc4C(F)(F)F)c(=O)c23)C1 | 6 | 1
CCC(C(=O)N1CCC2(CC1)SCCN2C(=O)c1cccc(OC)c1)c1ccccc1 (stereo unspecified) | 11 | 13
CSc1cccc(NS(=O)(=O)c2ccccc2F)c1 | -4 | -5
O=C(Cc1cccs1)N1CC[C@@]2(C1)[C@H](O)CN(c1ccccc1)S2(=O)=O | 0 | 2
CCCn1ncc(C(=O)N2CC[C@@H](c3ccc4c(c3)OCO4)[C@H](O)C2)c1C | 3 | 2

Arranged by SMILES length (falling): some entries from above
Structure | NPYLR7 ag | NPYLR7 ag max-min
CCn1nc(C(=O)NCc2ccc(OC)cc2)c2c1CCN(C(=O)CCCc1cccs1)C2 | 0 | -5
CCC(C(=O)N1CCC2(CC1)SCCN2C(=O)c1cccc(OC)c1)c1ccccc1 (stereo unspecified) | 11 | 13
Cn1c(=O)[nH]c(=O)c2c1nc(NC1CCCCC1)n2Cc1ccccc1Cl | 9 | 9
COc1ccc2c(c1)OCC(Cc1ccc(O)c(OC)c1)C2=O (stereo unspecified) | -8 | -19
O=C(NCc1sccc1Br)c1cccn1Cc1ccccc1 | 12 | 8
CC1CCC(N(C)c2cncc(Cl)n2)CC1 (stereo unspecified) | 18 | 11

The results go on:
Structure | NPYLR7 ag | NPYLR7 ag max-min
CCOC(=O)c1cc(C)nn1C1CCN(C(=O)c2cccc3ccccc23)CC1 | 19 | 11
CCn1cc(C(=O)NCCN2CCCc3ccccc32)c(C)n1 | -10 | -13
COC(C)(C)CC(C)NC(=O)c1oc2ccc(Cl)cc2c1C (stereo unspecified) | 5 | 2
Cc1ccc(N(CC(=O)O)S(C)(=O)=O)c(C)c1 | -4 | -5
CC(C)c1nccn1CCC(=O)NCCc1ccc(F)cc1 | 1 | 2
Cc1cc(CNC(=O)c2ccc3oc(CCc4ccccc4)nc3c2)nn1C | 5 | 1
CC(C)(C)Sc1ccc(Br)cn1 | 8 | 6
CC(C)(C)c1ccc2oc(=O)n(C3CCN(C(=O)c4cccc(C#N)c4)CC3)c2c1 | 38 | 30
COC(=O)CN1C(=O)N(CCc2ccccc2)C2(CCN(C3Cc4ccccc4C3)CC2)C1=O | 11 | 6
CC1(C)C2CCC1(CS(=O)(=O)Nc1nc3c(ccc4ccccc43)s1)C(=O)C2 (stereo unspecified) | -6 | -9
OCCNc1nc(N2CCc3sccc3C2)nc2ccccc12 | 9 | 5
O=C(CSc1ccc(C(F)(F)F)cn1)N1CCN(C(=O)c2ccco2)CC1 | 2 | -2
Cc1ccc(Cc2ccccc2C(=O)NC2CCC(n3cnnc3)CC2)cc1 (stereo unspecified) | -2 | -5
O=C(C1CC=CCC1)N(Cc1ccccc1)Cc1ccccc1 (stereo unspecified) | 5 | -1
CCN(CC)CCn1c(C)cn2c3c(=O)n(Cc4ccccc4C)c(=O)n(C)c3nc12 | -4 | -3
CC(C)NC(=O)CN(C)C(=O)c1nn(-c2ccccc2)c2c1CCC2 | 4 | 3
CCOc1cccc2sc(=NC(=O)CN3C(=O)CCC3=O)n(CC)c12 | 2 | 1
CCc1cccc2c(C(CC(=O)NCc3ccco3)c3ccc(OC)cc3OC)c[nH]c12 (stereo unspecified) | 3 | 9
Cc1ccc(CNC(=O)CSc2nc(N)c(NC(=O)c3ccc(C)cc3)c(=O)[nH]2)cc1 | -7 | -3
COc1ccc(-c2cc(N3CCOCC3)ncn2)c(OC)c1 | 9 | 4
CCOc1ccc(C(=O)Nc2nc(-c3ccc(F)cc3)cs2)cc1 | -2 | -6
COc1ccc(Cc2nnc(SCC(=O)Nc3ccc(OC(F)F)cc3)[nH]c2=O)cc1 | -7 | -8
COc1cccc(C(=O)NC(C(=O)NCc2ccco2)C2CCN(C(=O)C3CC3)CC2)c1 (stereo unspecified) | 1 | 1
CCCn1cc(CNC(=O)c2cccc(CC3CCNCC3)c2)cn1 | -7 | -14
Cc1noc(C)c1N(C)C(=O)CN(C)C(=O)OC(C)(C)C | 14 | 13
c1ccc(-c2ccc(-c3nccn3CCn3ccnc3)s2)cc1 | 5 | -12
CCCCc1ccc(S(=O)(=O)NC(=O)C2(C)CCN2C(=O)CC2CC2)cc1 (stereo unspecified) | 1 | -1
COc1c(C)cc(CN(C)C(=O)c2cc(C(C)=O)c[nH]2)cc1C | 5 | 4
CC(=O)c1c(C)cc(C)c(CS(=O)C(C)C(=O)NC(C)(C)C)c1C (stereo unspecified) | 2 | 24
COc1ccc(Br)cc1S(=O)(=O)n1nnc2ccccc21 | 0 | 6
NC(=O)CC1CCN(C(=O)c2cccnc2Oc2ccc(F)cc2Br)CC1 | 5 | 2
COc1cccc(CN(C)c2ccc3c(-c4ccccn4)noc3n2)c1 | 0 | -3
Cc1ccc(C)c(Cc2c(C)nc(-c3ccccc3)nc2N2CCN(C(=O)C(C)(C)CCl)CC2)c1 | 27 | 24
COc1cccc(N2C(=O)/C(=C/c3ccc(C)o3)NC2=S)c1 | 3 | 0
CCCCOc1ccc(C(=O)N(CCCC)CC(=O)N2c3ccccc3-n3cccc3C2c2ccc(F)cc2)cc1 (stereo unspecified) | 17 | 27
Cc1nc(C)c(CN2CCCC(C(=O)Nc3ccc(-c4cccc(F)c4)cc3)C2)nc1C (stereo unspecified) | 3 | 2
COCCn1c(C)cc(O)c(C(c2ccccc2OC)N2CCC(Cc3ccccc3)CC2)c1=O (stereo unspecified) | 12 | 1
O=C(c1cc(-c2ccccc2)nn1-c1ccccc1)N1CCN(c2cccc(Cl)c2)CC1 | -3 | 1
Cc1cc(=O)[nH]c(-n2nc(C)c(CCC(=O)Nc3cccc(C)c3C)c2C)n1 | 9 | -1
CCOC(=O)Cc1c(C)nc2ncnn2c1N1CCN(C(=O)c2ccccc2C(F)(F)F)CC1 | 25 | 13
CCNC(=O)c1cccc(-c2cc(N)nc3[nH]ccc23)c1 | -2 | -6
Cn1ccc2c(-c3ccc(C(=O)N4CCCC4)cn3)ccnc21 | -1 | 16
CCCCCn1cc(C2CCN(S(=O)(=O)c3ccc(Cl)cc3)CC2)c2ccccc21 | 21 | 9
Cc1cccc2c1N(C(=O)CCn1c(=O)[nH]c(=O)c3ccccc31)CC2 | 1 | -2
O=[N+]([O-])c1ccc(NCc2ccccc2)c([N+](=O)[O-])c1 | -2 | -8
CCC(=O)C1=C(c2ccccc2)N(C(=O)CC)n2c(CC)nnc2S1 | 6 | 2
CCN(CC)c1nc(SC)ncc1CNCCSC | -2 | -10
CC(C)NC(=O)c1cc(N2CCN(c3cccc(C(F)(F)F)c3)CC2)nc2ccccc12 | 10 | 5
O=C(CN1CSCC1=O)Nn1cnc2scc(-c3cccs3)c2c1=O | -1 | -5
O=C(O)c1cnoc1-c1ccc(Cl)s1 | 4 | 1
CC(C)O[C@H]1CN(C(=O)CCNC(=O)c2ccc(F)cc2)C[C@@H]1O | 19 | 9
O=C(O)c1ccccc1C1CCN(C(=O)CCCOc2ccccc2)C1 (stereo unspecified) | 15 | 10
COc1cc(NC(=O)c2ccc(-c3cn[nH]c3)c3ccoc23)cc(OC)c1OC | 6 | 15
CCOC(=O)c1nn(-c2ccc(C(F)(F)F)cc2)c(=O)c2c(NC(=O)CC(C)C)scc12 | 25 | 20
CCOc1ccc2nc(S(=O)(=O)NC(=O)C3(C)CCN3C(=O)C(C)(C)c3ccccc3)sc2c1 (stereo unspecified) | 6 | 3
CCc1cc(N(C)C2CCCCC2)nc(SCc2ccc(C(=O)NCCOC)cc2)n1 | 8 | 8
COc1ccccc1CCNC(=O)C(C1CCCC1)N1CCN(C(=O)c2cccc(Cl)c2)CC1 (stereo unspecified) | -16 | -9
Cc1cc(N2CC(C)CC(C)C2)n2ncc(-c3ccccc3)c2n1 (stereo unspecified) | -2 | -5
COCCn1c(=O)c2c(nc3n(-c4cc(OC)ccc4OC)c(C)c(C)n23)n(C)c1=O | -5 | -5
O=S(=O)(NCc1cccs1)c1ccccc1C(F)(F)F | -22 | -24

In a second layout: 2 of the compounds above.
SMILES: O=C(CN1CSCC1=O)Nn1cnc2scc(-c3cccs3)c2c1=O
  NPYLR7 ag: -1; NPYLR7 ag max-min: -5
SMILES: COc1ccc(-c2cc(N3CCOCC3)ncn2)c(OC)c1
  NPYLR7 ag: 9; NPYLR7 ag max-min: 4

New compounds follow.
Structure | NPYLR7 ag | NPYLR7 ag max-min
N#Cc1ccccc1CSc1nnc(NC(=O)Cc2ccccc2)s1 | -2 | 9
Cc1ccc(-n2c(SCC(=O)Nc3nccs3)nc3c([nH]c4ccccc43)c2=O)cc1 | 0 | 7
Cn1cc([N+](=O)[O-])c(C(=O)Nc2ccc(-c3nc4ccccc4o3)cc2)n1 | -5 | -6
Cc1nc(-c2ccc(NC(=O)c3csc(Br)c3)cc2)n[nH]1 | -16 | -18
CNC(=O)c1cccc(NC(=O)C(C)N2CCC(c3ccccc3)C2)c1 (stereo unspecified) | 2 | 5
CC1NC(=S)N(c2ccc(-c3cc4ccccc4o3)cc2)C1=O (stereo unspecified) | 0 | 0
CSc1nnc(N2CCCC2)n1-c1cccc(Cl)c1 | 2 | 4
Cc1cc(-c2cccc3ccnn23)ccc1NC(=O)c1cccnc1 | 8 | 5
O=C(NCCCNC(=O)[C@H]1CCCN1S(=O)(=O)c1ccc(Cl)cc1)c1ccccc1 | 2 | 11
CCCNc1nc2c(C)cccn2c(=O)c1C=C1SC(=S)N(C2CCCCC2)C1=O | -3 | -2
C=CCN(CC#Cc1ccccc1)Cc1ccoc1 | 1 | -5
Cc1ccc(C=NNC(=S)N=P(N2CCOCC2)(N2CCOCC2)C(C)(C)C)o1 | 7 | 4
Cc1cc(-c2nnc(NC(=O)C3CCN(S(=O)(=O)c4ccc(F)cc4)CC3)o2)n(C)n1 | 2 | 0
COc1cc(CC(=O)N2C[C@@H]3[C@@H]4CC[C@@H](C4)[C@@H]3C2)cc(OC)c1OC | 2 | 0
O=C(C1CCCN(C2CCN(Cc3ccncc3)CC2)C1)N1CC=CCC1 (stereo unspecified) | 6 | -5
CCOCCCN(CC(=O)N(Cc1cccn1Cc1ccccc1)C1CCCCC1)S(=O)(=O)c1c(C)cc(C)cc1C | 27 | 46
Cc1cc(=O)n2nc(CSc3nnc4n3CCCCC4)sc2n1 | 4 | 6
CCN(C(=O)c1cc2c(=O)n(C)c(=O)n(C)c2n1Cc1ccccc1)c1cccc(C)c1 | 3 | 1
Cc1cc(C)c(NC(=O)CC2Cn3ncc(-c4ccccc4)c3NC2=O)c(C)c1 (stereo unspecified) | 1 | 1
c1ccc(OCc2noc(CN3CCC(OCc4ccccn4)CC3)n2)cc1 | -2 | -4
CC(=O)Nc1ccc(F)c(NC(=O)N2CCC(C(F)(F)F)CC2)c1 | -3 | 29
NC(=O)NC1(C(=O)N2CCCC3(CC=CCC3)C2)CCCCC1 (stereo unspecified) | -4 | -9
CCCc1nnsc1C(=O)N1CCN(c2nc3c(OC)ccc(Cl)c3s2)CC1 | 1 | 0
Oc1ccc(CCn2ccnc2-c2cccc(F)c2F)cc1 | 1 | -1
CCCNC(=O)N(CC(=O)N1CCc2sccc2C1COc1cccc(F)c1)C1CC1 (stereo unspecified) | -4 | -1

An excerpt; rates above refer to the full screens.
